VACV E9 pol inh: inhibitors of vaccinia virus processive DNA synthesis (E9 polymerase). in vitro processive DNA synthesis, absorbance read-out; stronger effect = lower value; some inactives read as strong as hits. 0.94% of 46,000 active. normalized absorbance, % (no concentration beside the values);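 active means replicate mean up to 90% and picked by the depositor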;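 further: 100% = median of the test wells of a plate; 100 nL library stock went into each well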
The depositor's hits bear a star. A portion of the library. The share of hits here may be higher or lower than overall.

smiles,VACV E9 pol inh
CN(C)C=NC(=S)c1sccc1CSc1ccc(Cl)cc1,98
CC1CC(CC(C)C(=O)NC(=S)Nc2nncs2)C(=O)O1 (centres undefined),100
CN(C(=O)/C=C/c1ccc(Br)o1)c1ccccc1,100
COc1cccc(C2c3c(oc4ccccc4c3=O)C(=O)N2CCO)c1 (centres undefined),106
Cc1nn(-c2ccccc2)c2sc(C(=O)NC(C)C)cc12,82
CCn1c(O)c(/C=N/c2nc3ccccc3[nH]2)sc1=S,98
CCOc1ccc(NC(=O)CCc2ccc(OC)cc2)cc1,100
CCc1cccc(C)c1NC(=S)NCCC(=O)O,100
COc1ccc(S(=O)(=O)NCCn2ccc3ccccc32)cc1,99
COc1ccc(Nc2cc(C(=O)N3CCc4ccccc4C3)c3ccccc3n2)c(OC)c1,101
COc1ccc(Br)cc1S(=O)(=O)n1ccnc1,101
Cn1ncc(Br)c1NC(=O)CN1CCCCC1,86
Cc1ccc2c(c1)c(C)c(C)n2CC(O)Cn1nnc2ccccc21 (centres undefined),94
Cc1ccc(NC(=O)c2cccn(OCc3ccccc3)c2=O)cc1C,101
O=C(NCCc1ccccc1)N1c2ccccc2Sc2ccccc21,100
CC[n+]1c(/C=C/N(C)c2ccccc2)sc2ccc(OC)cc21,88
Cc1cccc2nc(Cn3ccccc3=O)cn12,100
Cc1ccc(NC(=O)CC(O)(C(F)(F)F)C(F)(F)F)cc1,96
CNC(=O)COC(=O)c1cccnc1Cl,101
Cc1ccc2c(cnn2C(=O)CCCC(=O)NC2CCCc3ccccc32)c1 (centres undefined),99
COC(=O)c1[nH]c(C(=O)OC)c(O)c1O,106
CCOC(=O)c1cnc2c(Cl)c(Cl)ccc2c1NCCOC(=O)C(C)C,100
O=C1CN=C(c2ccccc2)c2cc(Cl)ccc2N1,98
CC1(C)CC(=O)C(C(C2=C(O)CC(C)(C)CC2=O)c2ccccc2)C(=O)C1 (centres undefined),95
C=CCn1c(C(Cc2ccccc2)NC(=O)c2ccccc2)nc2ccccc21 (centres undefined),102

Next section.
smiles,VACV E9 pol inh
CC(c1ccccc1)N1CCC(CNC(=O)Nc2ccc(Cl)cc2)C1 (centres undefined),107
CC(C)c1ccc(C(=O)OCC(=O)NCc2ccc(Cl)cc2)cc1,103
CCc1ccc(NC(=O)C2c3ccccc3C(=O)N(CCOC)C2c2c[nH]c3ccccc23)cc1 (centres undefined),105
Cc1nc2cc(CCl)ccc2s1,107
Cc1[nH]n(-c2ccccc2)c(=O)c1Cc1c(Cl)cccc1Cl,98
Cc1ccc(Sc2c(CS(=O)(=O)c3ccccc3)[nH]c3ccccc23)cc1,101
CNC(=O)CS(=O)(=O)c1cn(CC(=O)N2CCCC2)c2ccccc12,100
Cc1cc(/C=C2/NC(=O)N(Cc3ccc(Br)cc3)C2=O)c(C)n1-c1ccc2c(c1)OCO2,100
O=C(NCc1ccc2[nH]c3c(c2c1)CCCC3)C1CC1,100
COc1ccccc1NC(=O)C1=C(C)Nc2ccccc2S1,100
CC(C)(C)c1cn2c3ccccc3nc2n1CCCO,96
CC1C(=O)CCN(C(C)(C)C)C1C (centres undefined),100
CC(=O)Nc1nc(-c2cccc3ccccc23)cs1,101
CCOC(=O)CSc1nc(N)c2c(C)c(C)sc2n1,98
OCn1c2c(c3ccccc31)CCCC2,97
O=C(c1cc(=O)c2ccccc2o1)N1CCCC1,99
c1ccc(C2CC2)c(OCC2=NCCN2)c1,102
CSc1nnc2n(/N=C/c3c[nH]c4ccccc34)cnn12,100
CCOC(=O)N1CCC(NC(=O)c2oc3c(c2C)-c2[nH]ncc2CC3)CC1,100
Cc1ccc(-c2nccnn2)cc1,103
O=C(Cn1ncc2ccccc21)N1CCc2ccccc21,102
COC(=O)/C=c1\sc2nc3cc(Cl)c(Cl)cc3n2c1=O,82
CN(C(=O)c1ccccc1)C(=O)N(C)C(=O)c1ccccc1,92
Cc1ccc(NC(=O)C2C3/C=C\CCCCC32)cc1 (centres undefined),99
Cc1ccc(S(=O)(=O)c2c[nH]c(=S)[nH]c2=O)cc1,100

Next part:
smiles,VACV E9 pol inh
CCC(Sc1nc2ncccc2c(=O)n1CC1CCCO1)C(=O)Nc1cccc(OC)c1 (centres undefined),100
Cc1ccc(C(=O)C2CCOC(C)(C)C2)cc1 (centres undefined),100
CCC(=O)Nc1nnc(SC)s1,101
O=C(c1ccc2c(=O)n(CCC3=CCCCC3)c(=S)[nH]c2c1)N1CCCC1,96
O=C1C(C=Nc2ccccc2O)=C(O)c2ccccc21,100
O=C(NCn1ccc(=O)[nH]c1=S)c1ccccc1,100
CN1CCN(Cc2coc3ccccc3c2=O)CC1,100
Cc1cccc(CSc2nc3c(c(=O)[nH]2)C(C(C)C)C2=C(CC(C)(C)CC2=O)N3)c1 (centres undefined),100
CCc1ccc(CN2CCN(Cc3cccc(OC)c3)CC2)cc1,100
CC(=O)Nc1ccc(OCC(O)CNC(C)C)cc1 (centres undefined),100
Nc1c(-c2cccc(C(F)(F)F)c2)cnn1-c1ccccc1,86
N#CCc1nc(=O)c2ccccc2s1,100
Cc1cc(C)c2c(n1)sc1c(=O)n(CC(=O)c3ccccc3)cnc12,103
O=C(Oc1cccc2cccnc12)N1CCCCCC1,100
COC(=O)c1ccc(COc2cc(C)cc(C)c2)o1,100
O=C1CN(CC(=O)N2CCN(c3ccc(F)cc3)CC2)c2ccccc2O1,98
N/N=C1\CCCc2c1[nH]c1ccc(C(=O)NN)cc21,46*
O=C1CCCN=C(Nc2ccc(F)c(Cl)c2)S1,87
O=S(=O)(NN1CCOCC1)c1cccc2cccnc12,101
N/N=C(\C(=O)O)c1ccccc1N,100
CCN(CC)c1cc(C)c2cc(NC(=O)c3ccc(Br)c(OC)c3)ccc2n1,98
CC12CCCCC1(O)N(O)C(C(=O)c1ccccc1)=N2 (centres undefined),100
CN(C)CC1CCCCC1O (centres undefined),84
CC1Cn2c(COc3ccccc3)nnc2S1 (centres undefined),98
CCCOc1ccc(N)cc1N,100

(next part)
smiles,VACV E9 pol inh
Cc1ccc(Nc2c(-c3ccccc3)nc3ccccn23)cc1,102
NC(=O)C1CCN(C(=O)CCc2nnc3n(Cc4ccccc4)c(=O)c4ccccc4n23)CC1,103
CCCCC(CC)C(=O)Nc1ccc(C#N)cc1 (centres undefined),98
CCOC(=O)c1oc2ccc(C=NC(C)(C)C)c(Cl)c2c1C,99
CCOC(=O)c1c(C)oc2c1c(C=NCc1ccccn1)c(O)c1ccccc12,98
COc1ccc(CCN2COc3c(cc(Cl)c4cccnc34)C2)cc1OC,84
C=CCN(C(=O)c1cc2c(=O)oc3ccc(C)cc3c2s1)c1ccccc1,102
Cc1onc(-c2ccccc2Cl)c1C(=O)NCC1CCCO1 (centres undefined),103
COCc1nc2ccccc2n1Cc1ccccc1Cl,111
COc1ccc(OC)c(N(C)S(=O)(=O)c2cc(Br)cnc2N)c1,92
O=C(NC(Cc1c[nH]c2ccccc12)C(=O)O)c1ccc(Cl)cc1 (centres undefined),90
CSC(=S)NCc1cccs1,100
Cc1scc(CN(C)Cc2ccccc2)c1C,94
CC(C)c1ccc(C2C(C#N)=C(N)SC(N)=C2C#N)cc1,95
Cc1cccc(C)c1NC(=O)CSC(=O)c1sc2ccccc2c1Cl,90
O=C(NCc1ccccc1)c1ccc2ncsc2c1,95
Cc1cc(C)n2nc(SCC(=O)NC(C)CCc3ccccc3)nc2n1 (centres undefined),99
O=C(O)/C=C\C(=O)Nc1ccccc1SCC(O)Cn1ccc(C(F)(F)F)n1 (centres undefined),93
CCc1ccc([C@H]2C(C#N)=C(N)C(C#N)(C#N)C3=CCN(C(=O)OC)C[C@@H]32)cc1,97
CCCOc1ccc2c3c(c(=O)oc2c1OCCC)CCC3,102
Cc1nonc1N(Cc1ccc(F)cc1)S(=O)(=O)c1ccccc1,100
CCCCn1c(=N)n(CC(O)COc2ccc(OC)cc2)c2ccccc21 (centres undefined),100
CCc1ccc2[nH]c(C(=O)Nc3ccccc3C(C)CC)cc2c1 (centres undefined),100
N#Cc1c(N)nc2c(c1-c1cccnc1)CCCCC2,98
O=C(Nc1ccccc1F)N1CCCC1c1cccnc1 (centres undefined),109

A different layout for 2 compounds above:
CCOC(=O)c1c(C)oc2c1c(C=NCc1ccccn1)c(O)c1ccccc12
  VACV E9 pol inh: 98
COc1ccc(CCN2COc3c(cc(Cl)c4cccnc34)C2)cc1OC
  VACV E9 pol inh: 84

Further compounds:
smiles,VACV E9 pol inh
Cc1cccc(OC(=O)Cc2ccc(F)cc2)c1,101
CN=S(=O)(Nc1ccccc1)c1ccc(C)cc1 (centres undefined),101
O=C1COc2ccc(-n3cccc3)cc2N1,93
Cc1ccc2sc(-c3nc4ccccc4s3)nc2c1,100
COc1ccc(-n2cc(-c3ccccc3)c3c(=O)[nH]cnc32)cc1,100
O=C1N(Cc2cc(=O)n3ccccc3n2)c2ccccc2S(=O)(=O)N1c1ccc(Cl)cc1,101
CCOC(=O)c1cc(C)nc(N2CCC(C(N)=O)CC2)c1C#N,98
CCOC(=O)Cn1cc(/C=C2\C(=O)NC(=O)N(c3ccc(F)cc3)C2=O)c2ccccc21,100
c1ccc(Nc2nc3ccccc3n3cnnc23)cc1,72
Cc1ccc(-n2c(SCC(N)=O)nc3ccccc3c2=O)cc1,102
N#CCOc1ccc2c(C#N)c3ccccn3c2c1,106
COc1ccc(N2Cc3ccccc3C3(CCOCC3)C2=N)cc1,100
O=C(c1ccc(-c2ccccc2)s1)N1CCOCC1,93
C/C(=N\C(=O)NN)c1cnn(-c2ccccc2)c1C,91
Cc1[nH]nc2nc(SCC(=O)N3CCCC3)n(-c3ccc(Br)cc3)c(=N)c12,100
Cc1ccc(C(=O)CSC#N)o1,92
CN(Cc1ccc2c(c1)OCO2)C1CCCCC1,95
CCOC(=O)C1=C(O)C(=O)N(C(C)(C)C)C1,101
CCCSc1nc2c([nH]c3ccccc32)c(=O)n1-c1cc(C)cc(C)c1,101
NS(=O)(=O)c1ccc(Cl)cc1Sc1ccccc1C(=O)O,86
CC1CN(c2ccc(NC(=O)c3ccco3)cc2C(=O)O)CC(C)O1 (centres undefined),93
c1cn(-c2ccc(-c3ccn[nH]3)cc2)cn1,80
CCOc1ccc2nc(NC(=O)C3CC3)sc2c1,100
N#CCCn1cc(C(=O)O)c(-c2ccccc2)n1,105
O=S1(=O)CC(O)C(NCc2ccco2)C1 (centres undefined),101

Later entries:
smiles,VACV E9 pol inh
CCCC(=O)Oc1c(Sc2ccccc2)c(C)nn1-c1ccccc1,86
N#C/C(=C/Nc1cccc(Cl)c1)c1nc(-c2ccc(F)cc2)cs1,101
O=C(c1cccc2ccccc12)N1CCCc2ccccc21,97
O=C(c1cc2ccccn2n1)N1CCC2(CC1)OCCO2,97
O=C(CSc1nc2cc(Cl)ccc2o1)c1ccc(F)cc1,102
Cc1ccc(NC(=O)C2CCCN2S(=O)(=O)c2ccc(Cl)cc2)cc1 (centres undefined),98
Cc1ccc(C(=O)Nc2ccc(Br)cc2C)cc1I,104
O=C(CCN1C(=O)c2ccccc2C1=O)N1CCN(c2cccc(Cl)c2)CC1,101
CCOC(=O)c1sc2nc3n(c(=O)c2c1C)CCCC3,110
CCc1ccc(NC(=O)CSc2c3c(nc4ccccc24)CCCC3)cc1,97
Cc1ccc(-c2csc3nc(CCl)[nH]c(=O)c23)cc1,101
Cc1nn(C)c(C)c1Sc1ccccc1N,104
O=C(Nc1nc2c(Cl)cccc2s1)c1c(F)cccc1F,102
CC(C)NC(=O)Oc1noc2ccc(Cl)cc12,99
COC(=O)c1cc2ccsc2n1CC(=O)N1CCCc2ccccc21,102
NC(=O)CCn1c(=O)sc2ccccc21,110
COc1ccc(-n2c(C)nc3ccccc3c2=O)cc1,100
O=C(NC(c1ccccc1)c1ccccc1)c1ccco1,101
CCOC(=O)c1nc2ccccc2c(=O)n1-c1ccc(Br)cc1,106
Cc1ccc(NCCNc2ccc(C)cc2)cc1,74
O=C(CCn1c(=O)oc2ccccc21)N1CCN(c2ccccc2Cl)CC1,101
CCc1ccc(NC(=O)Cn2c(=O)n(CCC(=O)NCc3ccccc3)c(=O)c3sccc32)cc1,96
CC(=O)OC1CCC2C3CC[C@H]4C[C@@H]5C[C@@H]5[C@H](O)C4(C)C3CCC12C (some centres undefined),102
COc1cccc(C2CC(C(F)(F)F)n3ncc(C(=O)N4CCCCC4C)c3N2)c1 (centres undefined),104
CC1=CS/C(=C(/C#N)C(=O)NCc2ccco2)N1c1ccccc1,99
COc1ccccc1N1C(=O)c2ccc(C(=O)Nc3cc(C)on3)cc2C1=O,100
CCC(C)(C(=O)Nc1cccc(C)c1)N1CCC1=O (centres undefined),101
CCOC(=O)c1sc(=Nc2ccccc2)n(Cc2ccccc2)c1C,100

An excerpt of these results, with each value named:
Compound: O=C(Nc1nc2c(Cl)cccc2s1)c1c(F)cccc1F
  VACV E9 pol inh: 102
Compound: CC(C)NC(=O)Oc1noc2ccc(Cl)cc12
  VACV E9 pol inh: 99
Compound: COC(=O)c1cc2ccsc2n1CC(=O)N1CCCc2ccccc21
  VACV E9 pol inh: 102
Compound: NC(=O)CCn1c(=O)sc2ccccc21
  VACV E9 pol inh: 110
